TGFb inhibitor – blocks TGF-b signaling. HepG2 CAGA-GFP TGF-b/SMAD3 reporter, GFP fluorescence, 18 h; TGF-beta stimulated, 500 pg/mL final. hit rate 1.2% among 410,000. AID 588855. Potency, µM (top dose mostly 46.1 µM), for the others: at the top dose activity, negative = inhibition, actives largely listed as inhibitors; also: % is scaled to controls: 0 for no effect and ±100 for the full control effect; nearly all actives have a fitted effect of over 65% in size
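Smad-responsive CAGA-GFP expression was quantified in HEPG2 cells exposed to compounds and 500 pg/mL final TGF-beta for 18 h at 37 degrees C; unstimulated wells defined full inhibition.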
ATXN viability – cell viability loss in ATXN counter-screen | hit rate 0.49% among 400,000 | Potency, µM (series often up to 56.7 µM), most hits filed as cytotoxic | S2 cells (HEK-293 line with an ATXN2-luciferase reporter) viability, CellTiter-Fluor protease fluorescence, 24 h; also: nearly all actives have a fitted effect of over 40% in size
MCF10A rerep – induces DNA re-replication in MCF 10a normal breast cells; MCF 10A DNA re-replication, Hoechst nuclear intensity, 48 h; Potency, µM (series often up to 46.1 µM), for inactives: at the top dose activity, positive = re-replication, hits mostly activators; hit rate 2.9% among 350,000; AID 624296; also: % of control where 0% means no effect; nearly all actives have a fitted effect of over 50% in size
Nrf2 ARE act – activates Nrf2 signaling; Potency, µM (highest dose often 46.1 µM), for inactives: at the highest dose activation, usual class: activators; AID 624171; AREc32 ARE-luciferase reporter (MCF7-derived line), luminescence, 24 h; hit rate 0.31% among 410,000; also: % of control where 0% means no effect; nearly all actives have a fitted effect of over 65% in size
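Nrf2 activation is followed as ARE-luciferase induction in the AREc32 line after one day of compound treatment; luminescence is read with Steady-Glo.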
ATXN2 expr inh – inhibitors of ATXN2 expression. HEK-293 ATXN2-luciferase reporter, luminescence, 24 h. hit rate 0.72% among 360,000. Potency, µM (series often up to 57 µM), inactives show top-dose activity change, negative = inhibition, hits mostly inhibitors; also: % is scaled to controls: 0 for no effect and ±100 for the full control effect; nearly all actives have a fitted effect of over 55% in size
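ATXN2-luciferase reporter cells (luciferase flanked by upstream and downstream ATXN2 gene portions) were treated 24 h at 37 °C with compounds at up to 57 uM. SteadyGlo luminescence gave expression; GF-AFC fluorescence gave viability.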
A549 viability – A549 cytotoxicity, counter-screen for Nrf2 inhibitors; A549 ARE-Fluc cells, CellTiter-Fluor viability, 18-24 h; hit rate 0.16% among 390,000; Potency, µM (doses to about 46 µM), inactives show top-dose activity change, negative = cytotoxicity, usual class: inhibitors; also: % is scaled to controls: 0 for no effect and ±100 for the full control effect
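A549 ARE_Fluc cells in 5% FBS OPTI-MEM were exposed to compounds in concentration-response for 18-24 h at 37 deg C. Viability was read by CellTiter-Fluor fluorescence (Ex 405/Em 525) after 30 min, before the luciferase read.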
Nrf2 inh – blocks Nrf2 signaling. AID 504444. Potency, µM (doses to about 46 µM), without a hit: top-dose activity change, negative = inhibition, most hits filed as inhibitors. A549 ARE-Fluc reporter, luciferase luminescence, 18-24 h. hit rate 2.1% among 360,000; also: % is scaled to controls: 0 for no effect and ±100 for the full control effect; nearly all actives have a fitted effect of over 60% in size
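Reporter: ARE-Fluc in A549. Exposure: 18-24 h, 37 °C, 5% CO2, 5% FBS OPTI-MEM. Readouts: fluorescent cytotoxicity (CellTiter-Fluor), then luminescent Nrf2 signal after BugLite.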
HepG2 viability – kills HepG2 cells in TGF-b inhibitor counter-screen | Potency, µM (top dose mostly 46.1 µM), for inactives: at the top dose activity change, negative = cytotoxicity, most hits filed as cytotoxic | HepG2 CAGA-GFP viability, ATP luminescence, 18 h | hit rate 0.76% among 410,000; also: some results filed as inactive show a strong effect at the top dose
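HepG2 CAGA-GFP cells (1000/well, DMEM with 1% FBS) received compound, then TGF-beta at 500 pg/mL final, and were incubated 18 hours at 37 degrees C. Viability was read by CellTiter-Glo luminescence. Media-only wells were set as complete cell-killing and DMSO as no toxicity.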
The depositor's hits bear a star; i = inactive; ? = inconclusive; . = no result given; [ ] = another dose, or the depositor's remark. Calls follow the shape of the dose curve; as a rule, active = well fitted curve in the direction sought with a large enough effect; inconclusive = small, poorly fitted or top-dose-only effect, or another doubt; inactive = no such curve, though single readings can be large; an effect the other way counts as inactive or inconclusive. Potency is read from the fitted curve at half-maximal effect. The list is partial, so the mix of outcomes need not match the whole.

SMILES	TGFb inhibitor	ATXN viability	MCF10A rerep	Nrf2 ARE act	ATXN2 expr inh	A549 viability	Nrf2 inh	HepG2 viability
CCC(CC)C(=O)NC12CC3CC(CC(C3)C1)C2	-1%	?	-1%	-0.9%	-3%	0%	3%	18%
Cn1ccc2c(-c3ccc(CO)cc3)cc3c(c21)C1CCC3O1 (stereo unspecified)	?	i	.	-0.9%	-1%	.	.	-28%
Cc1cccc(C2(c3cccc(C)c3)OC(=O)c3ccccc32)c1	-1%	i	?	0.1%	-9%	-15%	?	-25%
Cc1cc2nc(CN(C)Cc3c(C(=O)N(C)C)nc4ccc(Cl)cn34)[nH]c2cc1C	-19%	i	?	2.3%	-10%	-4%	1%	-12%
CCOC(=O)c1c(CC(C)C)csc1/N=C/C1C(=O)CCCC1=O	-13%	.	?	15%	-16%	4%	1%	-175%
CC(=O)Nc1ccc(S(=O)(=O)N[C@@H](C)C(=O)OCC(=O)c2ccc(Br)s2)cc1	-20%	i	.	0.5%	.	.	.	-25%
CCN(Cc1cc(=O)oc2cc(C)ccc12)c1ccccc1	?	i	12%	3.1%	-17%	7%	-18%	-35%
CN(C)CCN(C(=O)C1CCCCC1)c1nc2cc3c(cc2s1)OCO3	-10%	i	11%	-0.8%	-26%	-9%	?	-22%
COc1ccc2c(c1)CCc1c(C(=O)NCCN3CCOCC3)noc1-2	21%	i	-2%	2.2%	2%	-1%	.	-6%
CCOC(=O)C1=C(C)NC(C)=C(C(=O)OCC)C1c1ccncc1	-5%	i	.	2.0%	.	.	.	-1%
Cc1ccc(/C=C2/Sc3ccc(C(=O)N4CCN(C)CC4)cc3NC2=O)cc1	-3%	i	?	5.7%	-23%	2%	?	-3%
O=C(CSc1nc(O)cc(=O)[nH]1)C1CC1	24%	i	5%	-0.2%	-7%	9%	4%	-3%
COc1cccc(C2C(C(=O)Nc3cccnc3)=C(C)Nc3nnnn32)c1OC (stereo unspecified)	7%	i	-175%[0.0737 µM]	3.4%	4%	1%	1%	0%
Cn1c(SCC(=O)NC2CC2)nnc1C(F)(F)F	-30%	i	?	0.0%	-19%	1%	1%	0%
Cc1[nH]c2ccccc2c1C(=O)C(=O)N1CC(C)OC(C)C1 (stereo unspecified)	-12%	i	2%	-0.1%	3%	-8%	-19%	-6%
CC(CCc1ccco1)NC(=O)c1cc2c(-c3ccccc3F)nn(C)c2s1 (stereo unspecified)	-11%	?	12%	3.7%	-17%	0%	?	-3%
N#Cc1c(NC(=O)CN2CCCCC2)sc2c1CCC2	?	i	?	0.0%	28%	?	.	1%
CN(Cc1ccco1)C(=O)Cn1nc(-c2ccc(Cl)cc2)ccc1=O	2%	i	2%	0.0%	.	9%	-3%	-7%
O=c1cc(Cl)c(-c2ccccc2)nn1Cc1ccc(Cl)cc1	-19%	.	?	26%	-24%	1%	?	-45%
COc1ccc(NC(=O)Nc2c(C)n(C)n(-c3ccccc3)c2=O)cc1	0%	i	-8%	0.3%	31%	-4%	?	4%
COc1ccc(C(=O)Nc2ccc(C3(C#N)CCCC3)cc2)cc1OC	3%	?	21µM*	5.4%	29%	-19%	7%	-31%
COCCNC(=O)c1onc(CCl)c1C(=O)OC	5%	i	8%	12%	5%	-1%	6%	0%
O=C(NC1c2ccccc2-c2ccccc21)N1CCOCC1	-28%	i	-4%	-0.4%	-27%	4%	-1%	-43%
O=C(Nc1ccccc1)C1=C(O)CC(c2ccoc2)CC1=Nc1ccccc1 (stereo unspecified)	2%	i	9%	-0.6%	3%	0%	16%	-33%
Nc1cc(=O)nc(SCC(=O)NC2CCCCC2)n1-c1ccccc1	4%	i	5%	-0.2%	-1%	21%	23%	9%

One compound at a time, from the list above:
COc1ccc2c(c1)CCc1c(C(=O)NCCN3CCOCC3)noc1-2 across the screens: TGFb inhibitor: 21%; ATXN viability: i; MCF10A rerep: -2%; Nrf2 ARE act: 2.2%; ATXN2 expr inh: 2%; A549 viability: -1%; Nrf2 inh: .; HepG2 viability: -6%
COCCNC(=O)c1onc(CCl)c1C(=O)OC across the screens: TGFb inhibitor: 5%; ATXN viability: i; MCF10A rerep: 8%; Nrf2 ARE act: 12%; ATXN2 expr inh: 5%; A549 viability: -1%; Nrf2 inh: 6%; HepG2 viability: 0%
N#Cc1c(NC(=O)CN2CCCCC2)sc2c1CCC2 across the screens: TGFb inhibitor: ?; ATXN viability: i; MCF10A rerep: ?; Nrf2 ARE act: 0.0%; ATXN2 expr inh: 28%; A549 viability: ?; Nrf2 inh: .; HepG2 viability: 1%

Looked up by compound from the list above (2):
SMILES	TGFb inhibitor	ATXN viability	MCF10A rerep	Nrf2 ARE act	ATXN2 expr inh	A549 viability	Nrf2 inh	HepG2 viability
Cc1[nH]c2ccccc2c1C(=O)C(=O)N1CC(C)OC(C)C1 (stereo unspecified)	-12%	i	2%	-0.1%	3%	-8%	-19%	-6%
Nc1cc(=O)nc(SCC(=O)NC2CCCCC2)n1-c1ccccc1	4%	i	5%	-0.2%	-1%	21%	23%	9%

The listing continues.
SMILES	TGFb inhibitor	ATXN viability	MCF10A rerep	Nrf2 ARE act	ATXN2 expr inh	A549 viability	Nrf2 inh	HepG2 viability
Cc1cc(C)cc(OC(C)C(=O)Nc2ccc3c(c2)n(C)c(=O)n3C)c1 (stereo unspecified)	1%	i	6%	4.8%	.	10%	-13%	-4%
O=C(COC(=O)c1ccccc1)NCC1COc2ccccc2O1 (stereo unspecified)	-3%	?	.	0.5%	.	.	.	0%
CC1(C(=O)Nc2cnc3ccccc3c2)CCN1Cc1ccc2ccccc2c1 (stereo unspecified)	?	?	.	4.4%	?	.	.	-32%
COc1ccc2c(c1)CCc1c(C(=O)NCC(C)C)noc1-2	2%	i	9%	-0.9%	39%[activator]	3%	?	-27%
C/C(=N\NC(=O)c1ccc(NS(=O)(=O)c2cccs2)cc1)c1ccc(C(C)(C)C)cc1	1%	i	2%	1.8%	5%[11.3 µM]	?	-29%	-33%
O=C(O)c1cnc(-c2ccccc2)nc1-c1ccccc1	-6%	i	2%	-0.4%	-14%	-2%	-12%	4%
O=C(c1ccccn1)c1cc2ccccc2n1S(=O)(=O)c1ccccc1	-13%	i	6%	7.4%	19%	-7%	?	-19%
CCC(=O)c1ccccc1OCCN1CCN(Cc2ccccc2)CC1	-2%	i	6%	1.8%	-22%	-6%	?	-3%
O=C(Nc1ccc([N+](=O)[O-])cc1)C(c1ccccc1)c1ccccc1	?	i	.	-0.2%	.	.	.	-46%
CCOCCCn1c(=S)[nH]c2cc(C(=O)NCCOC)ccc2c1=O	2%	i	0%	5.0%	4%	.	11%	-15%
COc1ccc(C(=O)c2ccc(OC)cc2OC)cc1	-14%	i	16µM*	-0.1%	36%	-20%	-16%	1%
CCC(C)NC(=O)c1ccccc1NC(=O)/C(=C/c1ccc(OC)cc1)c1ccccc1 (stereo unspecified)	3%	i	?	-0.2%	-15%	-2%	-15%	29%
COc1cc(Br)c(CC(=O)O)cc1OC	1%	i	-172%[0.0737 µM]	-0.2%	-9%	-8%	-27%	10%
COc1ccc(C(=O)Nc2ccc(C3(C#N)CCCC3)cc2)cc1	-20%	i	-40%[inhibitor]	3.1%	-9%	4%	-3%	0%
COc1ccc(NC(=O)CN2CCCN(S(=O)(=O)c3ccc(F)cc3)CC2)cc1	4%	i	10%	0.2%	-22%	?	3%	-12%
CCN(Cc1nc2ccccc2c(=O)[nH]1)C(=O)c1cc(C2CC2)nn1-c1ccccc1	-6%	?	?	-0.1%	-9%	-1%	-5%	-17%
COc1ccc(/C=N/n2cnc3c([nH]c4ccc(F)cc43)c2=O)cc1CN1CCCC1	7.1µM*	i	?	0.3%	.	2%	-4%	7.1µM*
O=C(COc1ccc(F)cc1Br)NCC1COc2ccccc2O1 (stereo unspecified)	-16%	i	5%	3.1%	10%	6%	-18%	-24%
CCOC(=O)C1=C(C)c2ccccc2OC1C(=O)OCC (stereo unspecified)	-7%	i	1%	1.1%	5%	-2%	12%	-13%
COc1ccc(-c2nnc(SC)o2)c(OC)c1	-1%	i	0%	7.9%	27%	0%	?	-7%
CC(C)(C)c1ccc2c(c1)C(c1ccc3c(c1)OCO3)CC(=O)O2 (stereo unspecified)	5%	i	-12%	-0.6%	0%	2%	10%	5%
O=C1N(c2cccc3ccccc23)C(c2ccccc2)N2CCCN12 (stereo unspecified)	3%	i	-1%	2.1%	0%	4%	-1%	8%
CC1=C(C(=O)Nc2cc(C)ccn2)C(c2ccc(C)cc2)C2=C(CCCC2=O)N1 (stereo unspecified)	2%	i	3%	0.5%	7%	-8%	1%	0%
Cc1ccc(C2(c3noc(CN(C)Cc4ccccn4)n3)CCCC2)cc1	3%	i	-2%	3.5%	-1%	1%	7%	-4%
COc1cc(CNC(=O)c2cc(-c3cc(Cl)ccc3C)n[nH]2)cc(OC)c1	?	i	.	0.4%	-29%	.	.	-28%

Three compounds out of the list above, ordered by the value under TGFb inhibitor, rising:
mol | TGFb inhibitor | Nrf2 ARE act
Cc1cc2nc(CN(C)Cc3c(C(=O)N(C)C)nc4ccc(Cl)cn34)[nH]c2cc1C | -19% | 2.3%
O=C(COC(=O)c1ccccc1)NCC1COc2ccccc2O1 (stereo unspecified) | -3% | 0.5%
CCOCCCn1c(=S)[nH]c2cc(C(=O)NCCOC)ccc2c1=O | 2% | 5.0%

Going on with the list.
SMILES	TGFb inhibitor	ATXN viability	MCF10A rerep	Nrf2 ARE act	ATXN2 expr inh	A549 viability	Nrf2 inh	HepG2 viability
CCCCNC(=O)C1(C)CCCCN1C(=O)c1ccc2ccccc2n1 (stereo unspecified)	?	i	.	-0.8%	4%	.	.	-29%
Cc1sc2ncn(CC(=O)NCCCC(=O)N3CCN(c4ncccn4)CC3)c(=O)c2c1C	0%	i	2%	-0.6%	10%	-1%	-3%	6%
CCOc1ccc(/C=N/n2c(C)nnc2C)cc1OC	-3%	i	15%	2.1%	5%	0%	-5%	5%
CCOC(=O)C(=O)Nc1nc(-c2ccc3c(c2)CCN3C(=O)C2CC2)c(C)s1	5%	i	0%	0.2%	22%	1%	9%	-7%
CCOC(=O)C1=C(C)N(C)C(C)=C(C(=O)OCC)C1c1ccccn1	-3%	i	2%	-1.0%	-6%	-15%	-18%	-4%
COC(=O)c1c(CCl)noc1C(=O)NC(C)C	?	?	89%	5.1%	3%	-2%	1%	-17%

Screening results from PubChem.
